GLA inh pH 4.5 – alpha-galactosidase A (human) inhibition, pH 4.5. purified enzyme, 4-MU-alpha-Gal fluorescence, pH 4.5. activity change, negative = inhibition, % at 105 µM. P06280. AID 1467. 230,000 tested, under 10 active; inconclusive = small, poorly fitted or top-dose-only inhibition, or a rising curve; inactive = flat fitted curve, though single readings scatter; no compound was filed as active;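 further: 0% = full activity with enzyme and -100% = basal without enzyme; dose as in the result columns while the protocol names 77 µM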
Target sequence (P06280 whole entry, looked up): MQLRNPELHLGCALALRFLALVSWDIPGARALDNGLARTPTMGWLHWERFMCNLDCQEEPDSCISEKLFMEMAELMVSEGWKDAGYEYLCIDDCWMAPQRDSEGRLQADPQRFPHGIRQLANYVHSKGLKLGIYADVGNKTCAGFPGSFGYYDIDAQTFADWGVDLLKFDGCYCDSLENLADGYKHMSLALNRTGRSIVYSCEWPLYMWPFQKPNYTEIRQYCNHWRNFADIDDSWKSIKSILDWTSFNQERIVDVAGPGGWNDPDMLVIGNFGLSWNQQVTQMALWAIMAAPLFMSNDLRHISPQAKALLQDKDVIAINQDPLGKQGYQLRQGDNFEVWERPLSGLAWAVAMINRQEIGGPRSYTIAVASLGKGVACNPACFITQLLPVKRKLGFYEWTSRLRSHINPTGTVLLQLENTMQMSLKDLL
Rango release inh – inhibition of RanGTP-driven Rango-importin beta dissociation | Biochemical FRET Rango-importin beta, RanGTP-induced dissociation | O95149+P62826 | 340,000 tested, 0.071% active | Potency, µM (top dose mostly 46.1 µM), inactives show at the top dose activity change, negative = inhibition | AID 540253; active means falling FRET ratio curve, often poorly fitted, with flat reads before Ran was added; inconclusive means other falling curves, or compound fluorescence or quenching; inactive means flat or rising ratio curve;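 further: potency means the concentration at half of the fitted maximal effect; % of control where 0% means no effect; nearly all actives have a fitted effect of over 45% in size; -100% = wells without RanGTP and RCC1; the record marks most hits as doubtful in a second field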
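Compounds preincubate 5 min with complex of recombinant Rango and importin beta in PBS with 1 mM DTT. Ran (0.6 uM) loaded with 2 mM GTP plus 0.2 uM RCC1 starts dissociation; FRET is recorded 45 min later.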
miR-21 FLuc – miR-21 reporter, rising signal; HeLa miR-21 FLuc reporter, luciferase, 48 h; Potency, µM (series often up to 38.3 µM), without a hit: top-dose reporter change, positive = more light; 340,000 tested, under 10 active; active = well fitted rising curve with a large enough effect; inconclusive = small, poorly fitted or top-dose-only effect; inactive = no such curve, though single readings can be large or run the other way;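 further: % of control where 0% means no effect; miR-21 action dims this reporter so a rising signal means less miR-21 action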
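Compounds were titrated across several concentrations (up to approximately 40 uM) and incubated 48 hours with HeLa miR-21-FLuc reporter cells (miR-21 target sequence downstream of FLuc, endogenous miR-21). Readout was firefly luciferase luminescence after lytic detection reagent.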
Rango-impB inh – prevents formation of the Rango-importin beta complex. Q14974. Rango CFP/YFP FRET sensor + importin beta, 45 min. Potency, µM (titrated, usually from 92.2 µM), for inactives: at the top dose inhibition of complex formation. 340,000 tested, 0.031% active; active = rising FRET ratio curve, often small or poorly fitted; inconclusive = mostly compound fluorescence or quenching in the first reads; inactive = flat curves in all reads;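 further: potency means the concentration at half of the fitted maximal effect; 0% = DMSO wells and 100% = buffer wells lacking importin beta; nearly all actives have a fitted effect of over 15% in size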
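FRET biosensor Rango (snurportin 1 IBB between N-terminal EYFP and C-terminal Cerulean), 50 nM in PBS/1 mM DTT/0.02% Tween-20/0.1% BSA, preincubated 5 min RT with compound; 0.125 microM importin beta added, 45 min RT, CFP/YFP FRET ratio read.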
Active calls of the source: *; ? = inconclusive; / = not tested or not shown; [ ] = remark or other dose. A portion of the library; rates above refer to the full screens.

GLA inh pH 4.5	Rango release inh	miR-21 FLuc	mol	Rango-impB inh
2	?	-8%	CCCCn1c(NC(C)=O)c(C#N)c2nc3ccccc3nc21	?
/	13%	-3%	COc1ccc(-c2nc(CS(=O)(=O)CC(=O)NCc3cccc(Br)c3)c(C)o2)cc1	-2.6%
0	-7%	-1%	CCOC(=O)c1c(C)nc2sc3c(=O)n(-c4ccc(C)cc4)cnc3c2c1-c1ccc(OC)cc1	-0.8%
/	-15%	0%	Cc1ccc(C(=O)NCCCNC(=O)c2ccccc2C)cn1	7.8%
7	-21%	-11%	O=C(NC1CCCCC1)/C(=N\O)c1ccccn1	6.8%
/	11%	0%	CCN(C(=O)CSc1nc2cc(S(=O)(=O)N(CC)CC)ccc2o1)C1CCS(=O)(=O)C1 (configuration not stated)	-1.3%
/	-24%	0%	O=C(Nc1cnccn1)c1ccc(F)cc1Cl	?
-1	2%	-17%	C#CC[N+]1(CC#Cc2ccccc2)CCOCC1	-2.7%
/	-1%	-5%	Cc1cc2nc3n(c2cc1C)CCCN3	0.1%
-1	-4%	-20%	N/C(=N\OS(=O)(=O)c1ccc(Cl)cc1)c1ccccn1	3.5%
-1	1%	-60%	Cc1nnsc1C(=O)NNc1ccc(C(C)C)cc1	-1.6%
/	?	/	CC[C@]12C(=O)N(C)C[C@H]([C@@H]3C(=O)N(Cc4ccccc4)C(=O)[C@@H]31)N2C(=O)c1ccc(Br)cc1	-2.7%
11	-9%	28%	CC(C)CCNC(=S)Nc1ccc([N+](=O)[O-])cc1	-2.0%
/	2%	/	COc1cc(OC)cc(C(=O)NC(C(=O)N2CCC2)C(C)C)c1 (configuration not stated)	1.3%
-3	1%	-4%	CC1CCCCN1CCNS(=O)(=O)c1ccc2c(c1)oc(=O)n2C (configuration not stated)	-1.4%
/	15%	-34%	O=C(Nc1ccc(F)cc1)Nc1cccnc1Cl	0.8%

Reformatted as tab-separated lines: 4 of the compounds above.
molecule	GLA inh pH 4.5	Rango release inh	miR-21 FLuc	Rango-impB inh
CC[C@]12C(=O)N(C)C[C@H]([C@@H]3C(=O)N(Cc4ccccc4)C(=O)[C@@H]31)N2C(=O)c1ccc(Br)cc1	/	?	/	-2.7%
O=C(Nc1ccc(F)cc1)Nc1cccnc1Cl	/	15%	-34%	0.8%
N/C(=N\OS(=O)(=O)c1ccc(Cl)cc1)c1ccccn1	-1	-4%	-20%	3.5%
CC(C)CCNC(=S)Nc1ccc([N+](=O)[O-])cc1	11	-9%	28%	-2.0%

Other compounds follow:
GLA inh pH 4.5	Rango release inh	miR-21 FLuc	mol	Rango-impB inh
1	5%	0%	Cn1cc(-c2ccno2)c(C(=O)O)n1	-2.4%
-4	10%	-2%	C(=N\n1cnnc1)/c1cn(-c2cccs2)nc1-c1ccccc1	5.8%
-6	0%	16%	Cc1[nH]n(-c2ccccc2)c(=O)c1C(C[N+](=O)[O-])c1ccc(Br)cc1 (configuration not stated)	0.8%
5	8%	-6%	CCC(Sc1ccc2nnc(-c3ccc(F)cc3)n2n1)C(=O)OC (configuration not stated)	0.1%
8	-5%	0%	CCOC(=O)C1CCCN(CC(O)COc2ccccc2C(C)=O)C1 (configuration not stated)	1.7%
1	-1%	0%	Cn1cc(Cl)c(C(=O)NNC(=S)NCc2ccco2)n1	-1.9%
/	28%	/	COc1ccc2oc(C(=O)N3CCN(C/C=C/c4ccccc4)CC3)c(C)c2c1	-0.8%
0	-4%	4%	COc1ccc(Cl)cc1NC(=O)c1oc(C)nc1C	0.8%
0	-10%	-13%	CN(CC(=O)N1CCCCC1)S(=O)(=O)c1ccc(Cl)cc1	-2.7%
-11	15%	-16%	CC1CN=C(N(C(=O)Nc2ccccc2)c2ccc(F)cc2)S1 (configuration not stated)	-0.2%
0	?	-3%	Cc1sc2ncnc(SCc3ccc(C(=O)O)cc3)c2c1C	-0.5%
0	-7%	-3%	CCCCP(=O)(CCCC)Cc1ccccc1O	-0.1%
4	4%	-1%	Cc1ccc(C)c(NC(=S)Nc2cccc3cnccc23)c1	-0.8%
/	-10%	/	CC[C@]12c3[nH]c4ccc(Cl)cc4c3CCN1C(=O)[C@@H](CC(=O)NCCC1=CCCCC1)C[C@@H]2C(=O)N1CCN(C(=O)c2ccco2)CC1	-3.5%
/	17%	/	COC(=O)c1ccc(C)cc1C1CN=NC12Cc1cc(C)ccc1C2=O (configuration not stated)	-5.0%
3	-1%	-2%	Cc1ccc(C(=O)C2CCN(CC(=O)NC3CCCCC3)CC2)cc1	0.7%
/	5%	2%	O=C(O)c1cccc(S(=O)(=O)N(Cc2ccccc2)c2ccccc2Cl)c1	-0.4%
3[21.1 µM]	2%	0%	COc1ccccc1N1CCN(C(=O)CSc2nc(C)c(C)c(=O)[nH]2)CC1	1.5%
-7	-14%	-4%	OCCN(Cc1ccccc1)Cc1cccc(C(F)(F)F)c1	-0.3%
/	2%	7%	CCN(Cc1ccccc1)C(=O)c1c(-c2ccccc2Cl)noc1C	4.2%
-3	-10%	11%	Cc1ccc(NC(=O)c2cc([N+](=O)[O-])ccc2Cl)c(O)c1	-0.2%
-25	1%	23%	Cc1cc(OCC(=O)Nc2ccc(Br)cc2)cc2c1C(=O)CC(C)(C)O2	-0.1%
/	-10%	-7%	Cc1cccc(NC(=O)NC2CCCc3ccccc32)c1 (configuration not stated)	0.1%
3	-25%	12%	COCC(=O)OC/C(O)=C(\C#N)c1nc2ccccc2[nH]1	?
/	0%	/	O=C(c1cccc(S(=O)(=O)N2CCN(c3ccccc3)CC2)c1)N1CCN(c2ccccc2O)CC1	2.2%
-3	0%	-3%	Nc1nnc(-c2cn(-c3ccccc3)nc2-c2ccc(Cl)cc2)o1	0.2%
7	-4%	-1%	COc1ccc(Cc2noc(CN3CCCC(OCc4ccccn4)C3)n2)cc1OC (configuration not stated)	-2.7%
/	0%	3%	O=C(Cc1cccc(C(F)(F)F)c1)NCC(=O)Nc1cc(Cl)ccc1Cl	-6.2%
0	12%	-59%	Clc1ccc(-n2ncc3c(NCC4CCCO4)ncnc32)cc1 (configuration not stated)	?
-3	-7%	21%	Cc1cc(SC#N)cc(C)c1NC(=O)CCl	7.8%
4	-3%	-1%	CCN(CC)S(=O)(=O)c1ccc2c(c1)N(CC(=O)Nc1cccnc1Cl)C(=O)CO2	-3.7%
-1	-12%	5%	Fc1ccc(C(CCNCc2cccs2)c2ccco2)cc1 (configuration not stated)	-1.4%
-11	26%	0%	Cn1c(=O)c2c(SCC(=O)Nc3ccc4c(c3)OCCO4)nc(CC(C)(C)C)nc2n(C)c1=O	0.2%
-7	3%	-2%	CC(=O)N/C(=C\c1ccccc1Cl)C(=O)O	-0.6%
10	-2%	16%	Cc1cc(Br)ccc1NC(=O)CN1C(=O)CCC1=O	0.3%
-23	-10%	-9%	Fc1cc(Br)ccc1NC(=S)Nc1cccnc1	-4.4%
3	-20%	-1%	CCOC(=O)c1cc2sc(C)cc2n1CC(=O)N(CC)CC	-3.6%
/	10%	6%	Cc1nn(-c2ccc(N3CCCCC3)nn2)c(C)c1CCC(=O)Nc1ccc(F)c(F)c1	6.8%
/	11%	/	Cc1cc(C(C)(C)C)cc(C)c1COC(=O)CN1C(=O)NC2(CCCC2)C1=O	0.1%
/	-2%	-2%	C[C@H](NC(=O)[C@H]1N2C(=O)c3ccccc3C2SC1(C)C)C(=O)N1CCN(C)CC1 (some centres not stated)	-2.1%
5	1%	-9%	Cc1ccc(CCNC(=O)CN(C)S(=O)(=O)c2cnc[nH]2)cc1	4.1%
0	-12%	6%	Cc1cc2cc(CN(Cc3cccs3)C(=S)NCc3ccco3)c(=O)[nH]c2cc1C	-0.1%
/	-11%	/	Cc1ccc(OCC(=O)Nc2nc(C)c(Cl)cc2Cl)c([N+](=O)[O-])n1	-4.2%
-3	13%	-27%	O=C(O)Cc1ccc2sc(-c3ccccc3)nc2c1	6.5%
/	7%	-8%	CCc1nnc(NS(=O)(=O)c2ccc(NC(=O)CCC(=O)OC)cc2)s1	-4.1%
-4	1%	-37%	Cc1cc(C(=O)Nc2nnc(C3CCCCC3)s2)cs1	0.1%
/	-15%	-16%	Oc1cc2c(cc1CN1CCc3ccccc3C1)OCO2	-0.6%
-2	-10%	-6%	COc1ccc(CCN(C)CCC(=O)Nc2ccc(C)cc2)cc1OC	0.6%
-7	-2%	1%	O=C(NNS(=O)(=O)c1ccc(F)cc1)C1CC(c2cccnc2)=NO1 (configuration not stated)	-2.0%
-9	/	-4%	Cc1noc(/C=C/N(C)C)c1S(=O)(=O)N1CCCC(C(=O)NCc2ccc(F)cc2)C1 (configuration not stated)	/
/	-8%	/	CCC(C)c1ccccc1O (configuration not stated)	-0.7%
-2	-2%	-14%	COc1cccc(NC(=O)c2ccccc2-c2nc(-c3cccc(C)c3)no2)c1	-1.5%
/	-4%	0%	COc1cc(/C=C2/C(=O)NN(c3cccc(Cl)c3)C2=O)cc(Br)c1O	-1.2%
/	1%	/	O=C(CCN=C1NS(=O)(=O)c2ccccc21)NCc1ccccc1F	-2.0%
/	0%	-47%	COc1cccc(NC(=O)N2CCc3ccccc3C2)c1	-2.3%
-2	0%	-12%	O=c1cc(CSc2ccc([N+](=O)[O-])cc2)nc2sccn12	2.5%

Next section:
GLA inh pH 4.5	Rango release inh	miR-21 FLuc	mol	Rango-impB inh
1	15%	-1%	CN(CC1CCCO1)S(=O)(=O)c1ccc(C(=O)NCc2ccccc2)cc1 (configuration not stated)	0.5%
6	1%	-9%	Cc1ccc(NC(=O)C(C)N2CCOCC2)c(C(=O)c2ccccc2)c1 (configuration not stated)	?
/	-3%	/	COc1ccccc1COC(=O)C(NC(=O)c1ccc(C)cc1)C(C)C (configuration not stated)	0.7%
5	/	2%	Cc1cc(NC(=O)CN2CCCCC2C)nc2c1c(=O)oc1ccccc12 (configuration not stated)	/
7	?	-2%	COCCCNC(=S)N1CCCN(c2nc3c(C)c(C)ccc3cc2C#N)CC1	?
4	11%	-2%	Cc1nc2sc(C)c(C)c2c(=O)o1	-1.4%
7	/	-6%	CC(=O)c1cc2c(cc1NC(=O)CCC1CCCC1)OCO2	/
-2	-2%	0%	Cc1onc(-c2c(Cl)cccc2Cl)c1C(=O)NCCN1CCOCC1	0.2%

Three entries already listed, ordered by the number in GLA inh pH 4.5, descending:
GLA inh pH 4.5	Rango release inh	miR-21 FLuc	mol	Rango-impB inh
6	1%	-9%	Cc1ccc(NC(=O)C(C)N2CCOCC2)c(C(=O)c2ccccc2)c1 (configuration not stated)	?
5	/	2%	Cc1cc(NC(=O)CN2CCCCC2C)nc2c1c(=O)oc1ccccc12 (configuration not stated)	/
4	11%	-2%	Cc1nc2sc(C)c(C)c2c(=O)o1	-1.4%

Later entries.
GLA inh pH 4.5	Rango release inh	miR-21 FLuc	mol	Rango-impB inh
-4	0%	-15%	COc1cc(C(=S)NC2CCCCC2)ccc1O	0.4%
6	-6%	-2%	COc1cccc2cc(-c3nnc(SCC(=O)NCc4ccccc4)n3C)oc12	4.4%
/	-1%	-9%	CC(C)c1ccc(Nc2nc(Cl)nc(NCCO)n2)cc1	-0.8%
-1	8%	-6%	O=C1c2[nH]nc(-c3ccccc3O)c2C(c2cccc(O)c2)N1Cc1ccco1 (configuration not stated)	0.2%
3	-6%	0%	O=C(Cn1cnc2cc([N+](=O)[O-])ccc2c1=O)N(Cc1ccccc1)C1CCS(=O)(=O)C1 (configuration not stated)	-0.7%
-10	7%	-5%	Cc1nn(-c2cccc(C(F)(F)F)c2)c(=O)c2noc(C)c12	-0.1%
0	9%	7%	CC1(C)Cc2c(C#N)c(N3CCOCC3)nc(Cc3ccccc3)c2CO1	1.1%
/	1%	-9%	CC(C)CCn1c(N2CCCC2)nc2c1c(=O)[nH]c(=O)n2C	-0.2%
-19	2%	-20%	Cc1ccc(N=C(NO)c2nonc2N)c(C)c1	5.2%
-11	-4%	-3%	O=C(C1CC1)N1CCC(C(O)(c2ccccc2)c2ccccc2)CC1	2.9%

High-throughput results deposited in PubChem by National Center for Advancing Translational Sciences (NCATS).
